UCH37 inh: human UCH37 deubiquitinating enzyme inhibition; AID 588478; inhibition, % (concentration not given with the values); 330,000 compounds, 0.33% hits; Q9Y5K5; purified proteasome/UCH37, Ub-AMC cleavage fluorescence;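 active = mean of two replicates above 20%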;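 note: 0% = compound-free wells with enzyme and 100% = wells lacking proteasome; stock transfer was 100 nL into about 20 µL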
Target sequence (Q9Y5K5 whole entry, looked up): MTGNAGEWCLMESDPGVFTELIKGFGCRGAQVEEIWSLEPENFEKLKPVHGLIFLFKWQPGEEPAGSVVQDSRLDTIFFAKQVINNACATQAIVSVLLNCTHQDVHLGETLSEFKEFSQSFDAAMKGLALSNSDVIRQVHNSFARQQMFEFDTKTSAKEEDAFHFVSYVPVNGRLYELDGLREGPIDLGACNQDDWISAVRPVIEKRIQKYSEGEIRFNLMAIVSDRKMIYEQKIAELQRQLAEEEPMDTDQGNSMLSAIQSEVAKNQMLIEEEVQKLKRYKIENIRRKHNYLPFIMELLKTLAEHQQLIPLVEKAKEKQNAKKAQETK
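Assay system: Proteasome-bound UCH37. Buffer or medium: pH 7.4 Tris-HCl (50 mM) with ovalbumin, ATP-MgCl2, DTT. Incubation: 30 min preincubation with enzyme, 25 min cleavage at room temperature. Measured by: fluorescence, ex 355 nm, em 460 nm. Read-out basis: percent inhibition. Control set: wells without proteasome as full block, compound-free enzyme plus substrate as uninhibited.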
Vif A3G: inhibitors of Vif binding to APOBEC3G peptide, primary screen, biochemical, TR-FRET, GST-Vif 1-94, biotin-A3G peptide, dose response retest (AID 1117319). 260,000 compounds, 0.57% hits. TR-FRET GST-Vif / biotin-A3G peptide binding; higher % means a stronger effect; test concentration not given here; strong numbers were not always called active. inhibition, %; hits with a dose series show IC50 in µM;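 active = above the screen mean plus three standard deviations and confirmed in dose response; inconclusive = results disagree or hit not tested in dose response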;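 note: Vif residues 1-94 fused to GST binding biotinylated APOBEC3G peptide 110-148; 0% = full assay without inhibitor and 100% = GST in place of GST-Vif; retest series ran down from 100 µM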
FGF22 binding: binders of recombinant human FGF22 by thermal shift. Q9HCT0. SYPRO orange fluorescence; percent of sucrose octasulfate shift, DMSO zero. calls only at 9.99 µM. 340,000 compounds, 1.5% hits. AID 651658;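 active = melting point raised past a set limit in the mean and every replicate; inconclusive = no clear call; three in four hits are not shown here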
Target sequence (Q9HCT0 whole entry, looked up): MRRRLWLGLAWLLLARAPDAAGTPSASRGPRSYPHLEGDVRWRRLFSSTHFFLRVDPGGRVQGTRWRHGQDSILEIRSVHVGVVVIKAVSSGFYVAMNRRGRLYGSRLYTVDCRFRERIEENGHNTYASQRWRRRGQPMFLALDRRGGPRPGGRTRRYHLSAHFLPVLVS
Ecoli growth: inhibitors of Escherichia coli growth. OD600, 23 h; hits give low values. OD600 absorbance (concentration not given with the values). 330,000 compounds, 0.21% hits. AID 1053175;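 active = OD600 absorbance below the run mean of sample wells minus 3.6 SD, in any replicate, cut at about 0.56 in these data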;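 note: stock transfer was 300 nL into about 60 µL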
RanGTP-Imp inh: inhibitors of RanGTP-importin-beta interaction, primary screen, biochemical, FRET, CFP-Ran, YFP-importin-beta, homogeneous. cell-free CFP-Ran/YFP-importin-beta FRET ratio. inhibition, % (test concentration not listed). 300,000 compounds, 1.1% hits. AID 2216;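 active = most replicates above 15%; inconclusive = exactly half above 15%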;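 note: 0% = DMSO wells and 100% = Ran loaded with GDP instead of GTP; wells of about 40 µL received 100 nL stock; the first replicate is given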
HNF4A DNA FP: change in binding of human HNF4 alpha to DNA. HNF4a-FITC DNA binding, fluorescence polarization, 1 h. activity change, % at 10 µM. 360,000 compounds, 0.3% hits. AID 1224865; in the data active = activity change above about 30%, passing the limit was not always enough;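 note: controls were the assay level and a saturating level of protein; the project sought stronger binding though the title names inhibitors; some compounds called inactive have numbers as strong as hits; positive values seem to mean higher polarization but the record does not say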
MLL AF4-AF9 inh: inhibitors of human MLL-AF4/AF9 interaction. 350,000 compounds, 0.47% hits. AlphaScreen, biotin-AF4 peptide binding to FLAG-AF9. P42568. AID 651704. inhibition, % at 10 µM;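 active = every replicate reaching a set inhibition limit, whatever the replicate mean, cut at about 25% in these data; inconclusive = mean inhibition reaches that limit but some replicates miss it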;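 note: 0% = plate neutral control median and 100% = total signal loss; the record names both 10 and 1 µM as test concentration; the first replicate is given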
Target sequence (P42568 whole entry, looked up): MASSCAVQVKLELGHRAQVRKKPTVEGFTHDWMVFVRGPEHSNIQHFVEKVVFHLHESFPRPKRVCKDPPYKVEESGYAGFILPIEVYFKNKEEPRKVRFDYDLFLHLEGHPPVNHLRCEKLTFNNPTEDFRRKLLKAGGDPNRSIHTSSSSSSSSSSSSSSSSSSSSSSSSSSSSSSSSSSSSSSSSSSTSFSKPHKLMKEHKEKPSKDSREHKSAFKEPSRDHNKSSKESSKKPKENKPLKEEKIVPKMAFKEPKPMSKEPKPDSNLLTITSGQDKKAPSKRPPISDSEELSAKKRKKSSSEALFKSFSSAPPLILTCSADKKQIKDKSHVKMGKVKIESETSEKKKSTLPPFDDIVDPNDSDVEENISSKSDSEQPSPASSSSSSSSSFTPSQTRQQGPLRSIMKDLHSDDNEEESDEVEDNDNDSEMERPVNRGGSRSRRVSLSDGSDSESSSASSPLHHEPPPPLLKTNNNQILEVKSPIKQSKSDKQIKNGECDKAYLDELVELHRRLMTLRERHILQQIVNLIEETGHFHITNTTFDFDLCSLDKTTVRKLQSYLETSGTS
* marks the source's active call; other numbers are inactive results; i = inactive; ? = inconclusive; / = not tested or not shown.

SMILES	UCH37 inh	Vif A3G	FGF22 binding	Ecoli growth	RanGTP-Imp inh	HNF4A DNA FP	MLL AF4-AF9 inh
COc1ccc(NC(=O)c2nc3nc(C)cc(C(F)F)n3n2)cc1OC	4.1	2%	i	0.73	0.2	2.7	-0.2
Cn1nnc(NC(=O)c2ccc(C(C)(C)C)cc2)n1	4.7	2%	/	0.69	5.2	0.0	/
Cc1cccc(NC(=O)NN2CCN(C)CC2)c1C	3.5	/	i	0.7	2.7	-1.9	-0.7
CCC(C)(C(=O)NC1CCCCC1)N(C(=O)CNC(C)=O)c1c(C)n(C)n(-c2ccccc2)c1=O (stereo unspecified)	4.3	-6%	/	0.71	-1.6	4.8	/
COCCNC(=O)c1ccc2c(c1)NC(=O)CS2	4.4	4%	/	0.73	9.0	5.3	/
COC(CN(C)C(=O)c1cn(C)c2ccc(S(=O)(=O)N(C)C3CCCCC3)cc2c1=O)OC	2.8	3%	i	0.69	1.8	0.8	1.3
Nc1ccc(C(=O)N2CCN(S(=O)(=O)c3ccc(Br)cc3)CC2)cc1[N+](=O)[O-]	1.9	-8%	i	0.7	1.4	-6.4	2.6
CCOc1ccccc1N1CC(C(=O)Nc2ccc3c(c2)OCCO3)CC1=O (stereo unspecified)	3.6	/	i	0.72	-2.9	2.7	3.9
CCOc1ccc(/C=N/NC(=O)Cc2csc(Nc3cccc(C(F)(F)F)c3)n2)cc1	/	1%	/	/	5.9	-3.5	/
Cc1csc(NC(=O)C2=COCCO2)n1	-0.4	2%	i	0.62	-1.7	0.2	-0.2
COc1cc(/C=N/NC(=O)CNC(=O)c2ccncc2)ccc1OC(C)=O	/	/	i	/	0.3	-2.0	-0.6
c1ccc(OCCCc2nc(-c3ccccn3)no2)cc1	-1.3	6%	/	0.76	-2.0	-1.5	/
Cc1ccccc1-c1cc2nc(NCc3ccccc3F)n(C)c(=O)c2s1	/	/	i	/	/	-3.3	1.8
CC(=O)c1cccc(NC(=O)COC(=O)c2ccc3c(c2)OCCO3)c1	5.5	-5%	i	0.71	0.1	0.7	-1.0
CCOC(=O)c1c2c3c(c(Cl)ccc3[nH]c1=O)C(=O)c1ccccc1-2	7.4	?	i	0.59	-1.9	-11	0.1

Three of the entries above in order of their number in Vif A3G, low to high:
SMILES	UCH37 inh	Vif A3G	FGF22 binding	Ecoli growth	RanGTP-Imp inh	HNF4A DNA FP	MLL AF4-AF9 inh
Nc1ccc(C(=O)N2CCN(S(=O)(=O)c3ccc(Br)cc3)CC2)cc1[N+](=O)[O-]	1.9	-8%	i	0.7	1.4	-6.4	2.6
CCC(C)(C(=O)NC1CCCCC1)N(C(=O)CNC(C)=O)c1c(C)n(C)n(-c2ccccc2)c1=O (stereo unspecified)	4.3	-6%	/	0.71	-1.6	4.8	/
CCOc1ccc(/C=N/NC(=O)Cc2csc(Nc3cccc(C(F)(F)F)c3)n2)cc1	/	1%	/	/	5.9	-3.5	/

(more compounds)
SMILES	UCH37 inh	Vif A3G	FGF22 binding	Ecoli growth	RanGTP-Imp inh	HNF4A DNA FP	MLL AF4-AF9 inh
O=C(c1ccncc1)N1CCN(C(=O)c2ccco2)CC1	-1.1	2%	/	0.68	0.1	-1.8	/
COc1cc(NCCCNC(C)C)c2nccc(C)c2c1	7.8	53µM*	i	0.71	/	2.0	9.8
COc1ccc(/C=C2\SC(=O)N(CCNC(=O)CCS(=O)(=O)c3ccc(C)cc3)C2=O)cc1	6.5	7%	/	0.71	?	5.0	/
CCOc1ccc(C(Nc2cccnc2)c2cc(Cl)c3cccnc3c2O)cc1 (stereo unspecified)	22*	?	i	0.69	/	-3.6	?
O=CNc1ccccc1Oc1ccccc1	0.7	2%	/	0.71	4.5	-0.2	/
CCCNC(=O)C1(CC2CC(c3ccccc3)=NO2)CCN(C(=O)OC(C)(C)C)CC1 (stereo unspecified)	0.5	/	i	0.72	5.2	-3.9	-7.3
O=C(CN1C(=O)C2C3CC(C(Br)C3Br)C2C1=O)N1CCN(Cc2ccccc2)CC1 (stereo unspecified)	2.6	9%	i	0.67	-1.4	-0.9	1.2
Cc1nonc1NC(=O)CSc1ccc(-c2ccccc2)nn1	3.7	-2%	/	0.7	-1.1	1.8	/
CC(=O)NNC(=S)NC(=O)c1ccc(C)cc1	0.7	-5%	i	0.72	?	1.7	-5.8
COCCNC(=O)C1(C)CCN(C(=O)c2ccc(OC)c(F)c2)C1 (stereo unspecified)	/	/	i	/	/	1.9	-3.4
N#Cc1c(N)nc(SCC(=O)C23CC4CC(CC(C4)C2)C3)c(C#N)c1-c1ccc(Cl)cc1	-34	-135%	/	0.73	1.7	1.0	/
O=[N+]([O-])c1ccc(CSc2ccc(S(=O)(=O)N3CCOCC3)cn2)cc1	4.1	-9%	/	0.7	/	-2.2	0.8
COc1cc(NC(=S)N2CCCCC2C)c(OC)cc1Cl (stereo unspecified)	3.2	4%	/	0.67	4.1	0.3	2.4
Cc1cc(C)c(C)c(S(=O)(=O)NCc2ccncc2)c1C	3.5	/	i	0.64	7.2	2.0	0.3
OC[C@@H](O)C1OC2NC(=S)OC2C1O (stereo partly specified)	/	/	i	/	-1.3	0.4	-6.2
COC(=O)c1ccc(CS(=O)(=O)c2ccc(F)cc2)o1	4.9	13%	i	0.66	-2.5	-5.6	1.2
CCCn1cnc2c(oc3ccccc32)c1=O	3.3	-3%	i	0.66	-2.0	2.7	-2.1
CCC(Oc1ccc(Br)cc1Cl)C(=O)Nc1nnc(C2CC2)s1 (stereo unspecified)	1.0	/	i	0.74	1.2	1.1	-1.2
COCC1CCN(C(=O)C2CCC(=O)N(CCc3cccc(F)c3)C2)CC1 (stereo unspecified)	3.3	/	i	0.72	-3.4	4.4	5.5
CNC(=S)N(Cc1cccs1)Cc1cc2ccc(OC)cc2[nH]c1=O	7.1	/	i	0.69	2.2	0.1	-0.3
c1ccc(-c2nnc(SCc3cn4ccsc4n3)o2)cc1	0.6	-1%	/	0.65	?	4.2	/
COc1ccc(CCNC(=O)/C=C/c2ccc(S(=O)(=O)N3CCOCC3)cc2)cc1	0.8	12%	i	0.71	/	-1.4	-2.2
Cc1[nH]nc2c1/C(=N\O)CC(C)(C)C2	/	6%	/	/	2.7	-0.4	/
O=C(NCc1ccccn1)c1nc(-c2cccs2)no1	-0.3	0%	i	0.68	-6.0	0.3	-1.3
COc1ccc(Cl)cc1-c1nc(SCC(=O)NCC2CCCO2)n[nH]1 (stereo unspecified)	1.1	-12%	i	0.66	/	0.9	-2.1
CC(=O)c1sc(-c2ccc(F)cc2)cc1NS(=O)(=O)c1ccccc1	-25	-19%	i	0.69	1.9	5.7	1.3
CN(C)S(=O)(=O)c1cccc(C(=O)NC2CCSc3ccccc32)c1 (stereo unspecified)	-0.1	/	i	0.67	-0.9	2.1	0.4
CCOC(=O)[C@@H]1[C@H]2COc3ccccc3[C@@H]2N2C(=O)N(c3ccc(OC)cc3)C(=O)[C@]12C	0.5	/	i	/	-2.0	3.0	1.6
O=C(O)c1cc(NC(=O)c2ccc([N+](=O)[O-])cc2)cc(NC(=O)c2ccc([N+](=O)[O-])cc2)c1	7.2	-1%	i	0.72	?	-0.2	-0.7
CCc1ccc(NC(=O)c2ccc3c(=O)n4c(nc3c2)CCCCC4)cc1	-0.6	4%	i	0.7	-1.1	2.4	1.3
Cn1c(=O)c2c(nc(Br)n2Cc2ccccc2Cl)n(C)c1=O	6.0	-9%	/	0.77	0.2	1.6	/
O=c1oc(-c2cccc(S(=O)(=O)N3CCOCC3)c2)nc2ccccc12	-1.9	-3%	/	0.75	-0.6	1.1	/
CCOc1ccc(C(=O)NC2CC3CCCC(C2)N3Cc2ccccc2)cc1 (stereo unspecified)	1.5	/	i	0.61	-1.0	-1.3	0.6
CCN1C(=O)C(O)(C2COC(C)(C)CC2=O)c2cc(Br)ccc21 (stereo unspecified)	0.4	4%	/	0.68	2.5	-1.2	/
COc1cccc(-c2ccc3c(c2)N(Cc2ccccc2OC)C(=O)C(C)S3)c1 (stereo unspecified)	/	/	i	/	/	0.3	1.0
COCc1c(C(=O)N2CCN(Cc3ccc4c(c3)OCO4)CC2)oc2ccccc12	2.1	5%	i	0.68	/	2.3	1.8
CCN(CC)CCCn1c2c(c(SCC(=O)Nc3ccccc3Cl)nc1=O)CCC2	3.1	-4%	i	0.62	0.2	3.7	0.4
Cc1c(C(=O)Nc2ccc(Cl)cc2)c2ccccn2c1C(=O)c1ccc([N+](=O)[O-])cc1	4.6	-4%	/	0.67	1.9	5.5	/
COc1ccc(-n2c3c(cc(C(=O)NCC(=O)c4ccccc4)c2=O)C(=O)CC(C)(C)C3)cc1	-1.3	2%	i	0.73	4.3	-2.6	-16
COc1ccc(N2CCn3c2nc2c3c(=O)n(CCc3ccccc3)c(=O)n2C)c(OC)c1	5.0	-9%	/	0.67	-0.4	/	/
COc1ccc(-c2nc3cnccn3c2Nc2ccc3c(c2)OCO3)cc1	-41	10%	i	0.77	-1.9	3.3	28*
Cc1ccc(-c2nn(-c3ccc(F)cc3)cc2C(=O)NCC2CCCO2)cc1 (stereo unspecified)	0.4	0%	i	0.69	0.8	3.0	-15
Cc1ccccc1NC(=O)c1ccc2c(c1)C(=O)N(CC(C)C)C2=O	5.5	/	i	0.71	6.5	0.1	-5.7
CCOC(=O)N1CCN(C(=O)c2ccc(CN(c3ccc(C)c(C)c3)S(C)(=O)=O)cc2)CC1	2.6	4%	/	0.71	-1.3	2.0	/
Cc1c(C)c2ccc(OCC(=O)NCCN3CCOCC3)cc2oc1=O	-115	/	i	0.74	1.6	1.2	-0.3
CC(C)(C)c1n[nH]c2c1CCCC2	1.4	27%	i	0.62	-0.8	-2.0	2.9
COc1cc(C2C(C#N)=C(N)Oc3cc(N)ccc32)cc(OC)c1OC (stereo unspecified)	-3.3	17%	/	0.81	/	7.4	/
CCc1c(C)sc(NC(=O)c2cc(-c3cc(OC)ccc3OC)on2)c1C#N	-250	-12%	/	0.77	7.3	-3.3	/
O=C(CN(C1CCCCC1)S(=O)(=O)c1ccc(Cl)cc1)NCc1cccnc1	4.3	5%	/	0.65	?	0.2	/
COCCN(C(=O)COC(=O)/C=C/c1nc2ccccc2s1)c1c(N)n(Cc2ccccc2)c(=O)[nH]c1=O	0.3	4%	i	0.68	1.3	4.2	0.0
CSc1ccc(Cl)c(C(=O)N(C)CC(=O)Nc2ccc(N3CCOCC3)cc2)c1	4.7	-7%	i	0.69	3.9	7.6	-3.4
CCCc1cc(CNC(=O)C2CCC(=O)N(Cc3ccccc3OC)C2)on1 (stereo unspecified)	0.5	/	i	0.68	2.5	0.7	-8.8
CC(OC(=O)c1cc(S(=O)(=O)N2CCOCC2)ccc1F)C(=O)NCC1CCCCC1 (stereo unspecified)	2.1	2%	i	0.68	/	-5.3	-1.5
Oc1ccc(-c2nnc(SCC3CCCCC3)o2)cc1	1.8	5%	/	0.69	0.4	-0.1	/
COc1ccc(-c2csc(C(O)c3ccc(F)c(F)c3)n2)cn1 (stereo unspecified)	/	/	i	/	/	0.7	-4.3
Cc1ccc(C(=O)NCCCNC(=O)COc2ccc(Cl)c(C)c2)cn1	3.5	5%	i	0.6	0.1	1.8	0.0
COC(=O)[C@H](CCSC)NC(=O)Nc1ccc(S(N)(=O)=O)cc1	0.0	-12%	i	0.66	0.3	3.1	-2.1
CC(=O)c1ccc(NC(=O)/C(=C\c2ccc(F)cc2)NC(=O)c2ccco2)cc1	0.4	-6%	i	0.71	-1.1	5.1	-19
O=C(Nc1cccc(S(=O)(=O)N2CCCC2)c1)c1cc(S(=O)(=O)N2CCOCC2)ccc1F	4.4	3%	i	0.71	/	2.9	1.1

Assay outcomes (PubChem BioAssay)

This is a subset. The share of hits here may be higher or lower than overall.
